# Measles inh = inhibitors of measles virus growth in infected cells. 33,000 compounds, 0.1% hits. z-score (test concentration not listed). infected Vero cells, GFP fluorescence, 64 h; stronger effect = lower value;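 active = z-score under -3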;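 note: score is relative to mean and SD of the compound wells of a plate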
# * = called active by the depositor. This is a subset (hit frequency here may not be typical).
SMILES,Measles inh
COc1ccc(-c2nc(-c3ccc(Cl)cc3)sc2CC(=O)O)cc1,-0.18
CCCCOC(=O)C1=C(C)NC2=C(C(=O)CCC2)C1c1cc(Br)c(O)c(OCC)c1 (stereo not drawn),-0.68
COc1ccc(OC)c(CNC(=O)CCN2C(=O)COc3ccccc32)c1,-0.16
O=C(Cn1c2ccccc2c(=O)c2ccccc21)Nc1ccccc1F,0.63
Cc1cccc(CN2CCC(CNC(=O)C3c4ccccc4C(=O)N(C)C3c3c[nH]c4ccccc34)CC2)c1 (stereo not drawn),-0.91
CCOC(=O)c1ccc2nc(C)cc(Nc3cc(Cl)ccc3OC)c2c1,0.15
Cc1nc2cc(O)ccc2s1,-0.33
CC(=O)NCCc1ccc(S(N)(=O)=O)cc1,0.53
C=CCn1c(-c2ccccc2)n[nH]c1=S,1.61
CCC(=O)N1CCc2cc(Br)cc(S(=O)(=O)CCC(=O)NC3CCCCCC3)c21,1.35
CCCCOC(=O)c1ccc(NC(=O)c2cccs2)cc1,-1.04
Cc1ccc(-c2nc3cc(NC(=O)c4ccc([N+](=O)[O-])cc4)ccc3o2)cc1,0.05
Cc1ccc(C)c(N2CCN(C(=O)CCCCn3c(=O)[nH]c4ccccc4c3=O)CC2)c1,0.7
O=C1CN(C(=O)c2cc3ccccc3oc2=O)C(c2ccccc2)c2cc(F)ccc2N1 (stereo not drawn),-2.03
CCCCN(CC)c1nc(-c2ccccc2F)nc2ccccc12,-0.51
CCOc1ccccc1C(=O)Nc1ccc(F)cc1,-1.08
Cc1ccc(S(=O)(=O)Nc2ccc3oc(C)c(C(=O)O)c3c2)cc1,-0.92
O=C1CCCC2=C1C(c1ccccc1)NC(=S)N2 (stereo not drawn),0.12
COc1ccccc1NC(=O)c1sc2nc(C)c(C(=O)Nc3ccc(C)cc3C)c(-c3cccnc3)c2c1N,1.4
COc1ccc2c(c1)sc1nc(-c3cc4cc(Br)ccc4oc3=O)cn12,0.56
Cc1ccc(C(=O)Nc2nccs2)cc1[N+](=O)[O-],-0.09
O=C(Nc1ccc(NC(=O)c2cccnc2)cc1)c1ccc(Br)cc1,0.23
Cc1ccc2c(c1)C(O)(C(=O)NC(N)=O)C(=O)N2 (stereo not drawn),-1.09
COc1ccc(NC(=O)NCc2cccn2C)c(OC)c1,-0.06
CCCC12CN3CC(C)(CN(C1)C(=O)c1ccccc1C3=O)C2=O,2.24
# The listing continues:
SMILES,Measles inh
CC(C)CN(CC(C)C)S(=O)(=O)c1ccc2c(c1)CCN2C(=O)C1CCC1,1.07
CC(C)N1C(=O)CCC1C(=O)N1CCCc2ccccc21 (stereo not drawn),-0.99
CC(C)Sc1nnc2c3ccccc3n(C)c2n1,0.1
CC(C)(C)c1cn(-c2ccccc2)c(=S)[nH]1,-0.73
CC(=O)N(c1ccc(C)cc1)C1(C(=O)NC2CCCC2)CCCCC1,0.19
O=C(Nc1ccc2c(c1)Cc1ccccc1-2)c1ccc2c(c1)OCCO2,-0.68
CCCN1C(=O)C(O)(CC(=O)c2cccs2)c2ccccc21 (stereo not drawn),-0.45
O=C(NCCc1c[nH]c2ccccc12)c1ccc([N+](=O)[O-])cc1,0
O=C(NCCSCc1ccccc1)c1ccc(-n2c(=S)[nH]c3ccccc3c2=O)cc1,0.29
Cc1cc(N2C(=O)CSC2c2ccccc2C(F)(F)F)ccc1Br (stereo not drawn),-2.9
Cc1ccccc1N=C1CCCc2ccccc21,-1.05
Cc1cc(C)c(S(=O)(=O)N2CC(c3ccccc3)CC2=O)c(C)c1 (stereo not drawn),1.96
O=C(Nc1ccc([N+](=O)[O-])cc1)c1ccccc1I,-0.42
CCC1=NN(C(=O)c2ccc(F)cc2)C(O)(C(F)(F)F)C1 (stereo not drawn),0.29
O=S(=O)(c1ccc(Br)s1)N1CCOCC1,-0.31
CC1CCc2c(sc(NC(=O)COc3ccccc3)c2C(=O)Nc2ccccc2Cl)C1 (stereo not drawn),1.16
O=C(CCn1nc(C(F)(F)F)cc1C1CC1)NCCC1=CCCCC1,-2.36
CCOC(=O)C(C(=O)Nc1nc2ccccc2s1)C1CCCCC1 (stereo not drawn),-0.53
O=C1CC(N2CCN(Cc3ccc4c(c3)OCO4)CC2)C(=O)N1c1ccc(OC(F)(F)F)cc1 (stereo not drawn),-0.55
COCCOC(=O)C1=C(C)N=C2SCCC(=O)N2C1c1ccc(C)cc1 (stereo not drawn),-1.5
O=C(O)C1CCC(CN(Cc2ccc(F)cc2)S(=O)(=O)c2ccc([N+](=O)[O-])cc2)CC1 (stereo not drawn),-0.32
Cn1c(=NC(=O)c2cc3ccccc3oc2=O)sc2cc(Cl)ccc21,0.5
CCN(c1ccc2c(c1)OCO2)S(=O)(=O)c1ccc2c(c1)CCC(=O)N2,-0.46
Cc1cc(C)c(Cn2c(=O)n(CCC(=O)NC3CCCC3)c(=O)c3ccccc32)c(C)c1,-0.29
CCC1SC2=NC(C)=C(C(=O)OC)C(c3ccc(C(C)(C)C)cc3)N2C1=O (stereo not drawn),1.66

# Given with bars between the fields: entries from further up
Compound | Measles inh
CC(C)CN(CC(C)C)S(=O)(=O)c1ccc2c(c1)CCN2C(=O)C1CCC1 | 1.07
CC(C)N1C(=O)CCC1C(=O)N1CCCc2ccccc21 (stereo not drawn) | -0.99
CC(C)Sc1nnc2c3ccccc3n(C)c2n1 | 0.1
CC(C)(C)c1cn(-c2ccccc2)c(=S)[nH]1 | -0.73
CC(=O)N(c1ccc(C)cc1)C1(C(=O)NC2CCCC2)CCCCC1 | 0.19
O=C(Nc1ccc2c(c1)Cc1ccccc1-2)c1ccc2c(c1)OCCO2 | -0.68
CCCN1C(=O)C(O)(CC(=O)c2cccs2)c2ccccc21 (stereo not drawn) | -0.45
O=C(NCCc1c[nH]c2ccccc12)c1ccc([N+](=O)[O-])cc1 | 0
O=C(NCCSCc1ccccc1)c1ccc(-n2c(=S)[nH]c3ccccc3c2=O)cc1 | 0.29
Cc1cc(N2C(=O)CSC2c2ccccc2C(F)(F)F)ccc1Br (stereo not drawn) | -2.9
Cc1ccccc1N=C1CCCc2ccccc21 | -1.05
Cc1cc(C)c(S(=O)(=O)N2CC(c3ccccc3)CC2=O)c(C)c1 (stereo not drawn) | 1.96
O=C(Nc1ccc([N+](=O)[O-])cc1)c1ccccc1I | -0.42
CCC1=NN(C(=O)c2ccc(F)cc2)C(O)(C(F)(F)F)C1 (stereo not drawn) | 0.29
O=S(=O)(c1ccc(Br)s1)N1CCOCC1 | -0.31
CC1CCc2c(sc(NC(=O)COc3ccccc3)c2C(=O)Nc2ccccc2Cl)C1 (stereo not drawn) | 1.16
O=C(CCn1nc(C(F)(F)F)cc1C1CC1)NCCC1=CCCCC1 | -2.36

# Further compounds:
SMILES,Measles inh
Cc1cc(N2CCN(C)CC2)nc2ccc(NC(=O)CCC(=O)NC(C)C)cc12,0.75
CCC(=O)CC(O)(c1ccccc1)C(F)(F)C(F)F (stereo not drawn),-0.17
COc1ccc(-n2c(SCC(=O)Nc3nccs3)nc3c([nH]c4ccccc43)c2=O)cc1,-0.74
CC(C)(C)c1ccc(OCC(=O)Nc2ccc3oc(-c4ccc(F)cc4)nc3c2)cc1,2.05
CC1=NN(C(=O)c2ccccc2[N+](=O)[O-])C(C)(O)C1 (stereo not drawn),0.02
O=[N+]([O-])c1c(N2CCN(CCO)CC2)ccc2nonc12,0.31
O=C(O)C1Sc2[nH]c(=O)sc2C2c3ccccc3OC(=O)C12 (stereo not drawn),2.35
CC1CCc2sc(NC(=O)c3ccc(Cc4ccccc4)cc3)c(C(N)=O)c2C1 (stereo not drawn),-0.56
Cc1c(Cl)c(C(F)(F)F)nn1CC(=O)Nc1ccc(C#N)cc1,2.04
CCOc1ccccc1NC1OC(=O)c2ccccc21 (stereo not drawn),-0.29
COc1cc(CNc2ccc(C)cc2)ccc1O,0.15
O=[N+]([O-])c1ccc(S(=O)(=O)N2CC3C=CC2C3)cc1 (stereo not drawn),0.23
CCCCCCn1c2ccccc2c(=O)c2ccccc21,-1.3
N#Cc1c(N=Cc2cc3c(cc2Br)OCO3)sc2c1CCCC2,-2.1
O=C(CSc1nccn1-c1ccc(F)cc1)Nc1ccccc1C(F)(F)F,-1.61
COC(=O)c1sc2nc(C)cc(C)c2c1-n1cccc1,-0.59
Cc1ccc(-c2noc(CCC(=O)NCC3CCCO3)n2)cc1 (stereo not drawn),0.99
Cc1c(Cl)cccc1-n1c(-c2ccncc2)n[nH]c1=S,-1.2
COc1ccc(CCNC(=O)Cn2nc(-c3ccc(Cl)cc3)ccc2=O)cc1OC,0.97
CC1CCC(C(=O)NC(C(=O)Nc2ccc3c(c2)OCO3)C(C)C)CC1 (stereo not drawn),-0.27
CC(=O)NCCc1ccc(S(=O)(=O)NC2OC(=O)c3ccccc32)cc1 (stereo not drawn),-0.88
Cc1c(C#N)c2ccccc2n1CC(=O)NCC1CCCO1 (stereo not drawn),-0.14
Cc1ccc(NC(=O)c2ccccc2F)c([N+](=O)[O-])c1,-0.09
CC1=C(C(=O)OCC(C)C)C(c2ccc(C(C)C)cc2)N2C(=O)C(C)SC2=N1 (stereo not drawn),1.31
COc1ccc(C)cc1C(=O)C1CC(C(=O)O)C(C)(C)C1C (stereo not drawn),0.9
# Other entries:
SMILES,Measles inh
COc1ccc(-n2c(C=Cc3cccc(OC)c3OC)nc3ccccc3c2=O)cc1Cl,0.57
CCOC(=O)C1=C(C)NC2=C(C(=O)CC(C)(C)C2)C1c1cc(CC)sc1SCC (stereo not drawn),-0.14
CN(C)c1ccc(C2C=C(c3ccccc3)Nc3ncnn32)cc1 (stereo not drawn),5.81
Cc1nnc(Nc2cccc(F)c2)[nH]c1=O,1.18
O=C(Cc1ccc([N+](=O)[O-])cc1)NCc1ccccn1,-0.1
Cc1ccc(Oc2cccc(N3C(=O)c4cccc([N+](=O)[O-])c4C3=O)c2)cc1C,0.44
O=C(O)CN1C(=O)C2C3C=CC(C4CC34)C2C1=O (stereo not drawn),-0.47
Cc1ccccc1OCc1nc(-c2ccc(NC(=O)c3ccncc3)cc2)no1,-0.5
O=[N+]([O-])c1ccc2nonc2c1NC1CCCCC1,0.09
CCOc1ccc2c(c1)C(=C1SC(C(C)=O)=C(c3ccccc3)S1)C(=S)C(C)(C)N2,-1.09
O=S(=O)(NCCc1c[nH]c2ccccc12)c1cccc2nsnc12,-1.91
COc1ccc(C=Cc2cc(=O)c3cc(Cl)ccc3o2)cc1,2.52
COc1cc(NS(=O)(=O)c2ccc(NC(=O)c3ccccc3I)cc2)nc(OC)n1,-1.27
COCCN1C(=O)c2ccccc2C(C(=O)NC2CCCCC2)C1c1c[nH]c2ccccc12 (stereo not drawn),-1.03
Cc1cc([N+](=O)[O-])nn1CCCC(=O)Nc1ccc(Br)cc1,-0.63
CC(C)(C)c1cc(C(C)(C)C)c2nc(-c3ccccc3O)oc2c1O,-1.21
CCCCCn1c(=S)[nH]c2cc(C(=O)N3CCOCC3)ccc2c1=O,0.36
CCOC(=O)CSc1nc2sc3c(c2c(=O)n1CCc1ccccc1)CC(C)(C)OC3,0.25
COc1cc(C(=O)N2CCN(C(=O)CCC3CCCC3)CC2)cc(OC)c1OC,0.28
COc1ccc(-n2c(C=Cc3cccc4ccccc34)nc3ccccc3c2=O)c(OC)c1,1.1
Cc1nc2sc3ccccc3c2s1,-0.14
CN1C2=C(C(=O)CC(C)(C)C2)C(c2cccc(O)c2)C2=C1CC(C)(C)CC2=O,-0.08
O=C(C1CCN(S(=O)(=O)c2cnc[nH]2)CC1)N1CCC(N2CCCCC2)CC1,-1.62
CC1CN(Cc2c(O)ccc3c(=O)c(Oc4ccc(-c5ccccc5)cc4)c(C(F)(F)F)oc23)CC(C)O1 (stereo not drawn),0.7
CC(=O)N(c1ccc(C)cc1)C1(C(=O)NC2CCCCC2)CCCCC1,0.09
# The results go on:
SMILES,Measles inh
CC1=C(C(=O)OCc2ccccc2)C(c2ccc3c(c2)OCO3)C2=C(CC(c3cccs3)CC2=O)N1 (stereo not drawn),-1.69
Cc1ccc(-c2nn(C)c(=O)c3ccccc23)cc1S(=O)(=O)NC1CCCCC1,-0.03
COc1cc(C2NC(=O)NC(C)=C2C(=O)Nc2cccc(Cl)c2)cc(OC)c1OC (stereo not drawn),-0.49
CCOc1cc(C2C(C(C)=O)=C(C)Nc3ncnn32)ccc1O (stereo not drawn),-0.98
COc1ccc(-n2cnc(N)c2C(=O)c2cccc([N+](=O)[O-])c2)cc1,0.45
Cn1c(=O)c2c(n3c(SCC(N)=O)nnc13)-c1ccccc1CC21CCCCC1,-0.36
Cc1nnc2c(Oc3ccccc3)nc3ccccc3n12,1.31
Clc1ccc(-c2nc3ncccn3c2Nc2ccc3c(c2)OCO3)cc1,2.29
O=c1oc2ccccc2c(N2CCOCC2)c1CN1CCCC1,0.42
CN(C(=O)c1cc(-c2ccc(Cl)cc2)on1)c1ccccc1,-0.4
CCn1c(=O)c(C(=O)NCc2ccccn2)c(O)c2ccccc21,-0.93
Cc1ccc(OC(=O)c2cccc(C(=O)Oc3ccc(C)cn3)n2)nc1,-1.21
O=c1cc(-c2cccc([N+](=O)[O-])c2)c2ccc(OCc3ccc(F)cc3)cc2o1,0.74
COc1ccc(NC(=O)c2ccc([N+](=O)[O-])cc2)cc1,0.13
COC(=O)c1cccc(C(=O)Oc2ccc3ccccc3c2Br)n1,-0.97
CC(C)NC(=O)CCCCCn1c(=S)[nH]c2cc3c(cc2c1=O)OCO3,-0.95
CC=CCOC(=O)C1=C(C)NC(=O)NC1c1ccc2c(c1)OCO2 (stereo not drawn),-0.6
COc1ccc(NC(=O)CCCn2nc(C)c([N+](=O)[O-])c2C)cc1,-0.76
CC(=O)c1cccc(NC(=O)C2CCCN(S(=O)(=O)c3ccc(Br)s3)C2)c1 (stereo not drawn),-0.52
COc1cc(N(C)C)c([N+](=O)[O-])cc1C(=O)NCCN1CCN(c2ccccc2)CC1,2.09
COc1ccc(-c2nc(SCC(=O)Nc3cccc(C(F)(F)F)c3)c3c(=O)n(C)c(=O)n(C)c3n2)cc1,0.77
Nc1cc(Oc2ccc(Br)cc2)cc([N+](=O)[O-])c1,1.21
CCCN1C(=O)C(O)(c2c(C)[nH]c3ccccc23)c2ccccc21 (stereo not drawn),-0.15
